From PubChem
AID923 = qHTS Assay for Allosteric/Competitive Inhibitors of Caspase-1: Spectroscopic Profiling in AFC Spectral Region | compound fluorescence, AFC spectral region (405/520 nm); almost no hit is shown here | Potency, µM (titrated, usually from 57.5 µM), for the others: at the top dose fluorescence increase, usual class: activators | hit rate 1.1% among 75,000; active means well fitted activation curve with a large enough effect; inconclusive means small, poorly fitted or top-dose-only effect;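 further: potency means the concentration at half of the fitted maximal effect; 0% is about no effect; scaled to a free AFC standard on each plate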
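Titrations up to 57 uM read every 20 sec for 3 min (405/520 nm) with 50 nM caspase 1 and 5 uM Ac-WEHD-AFC, pH 7.5 HEPES buffer. Fluorescence-vs-time intercept gave baseline, scaled against on-plate AFC standard.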
Resorufin autofl = compound fluoresces in the resorufin spectral region | AID 588 | hit rate 0.04% among 59,000 | Compound fluorescence, resorufin region 547/598 nm, buffer; active compounds read high | max dye-equivalent concentration, M; active = above 10 nM dye equivalent; inconclusive = 1 to 10 nM; inactive = 1 nM or less; a few of its hits are not listed in these tables; further: highest value over a series up to 38 µM
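Compounds in 100 mM Tris, pH 8.0, incubated 15 min at room temperature, then fluorescence read at 547 nm excitation/598 nm emission. Signal converted to dye-equivalent concentration via an on-plate six-point resorufin standard curve, per compound concentration.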
A647 fluor = A647 region autofluorescence; Compound fluorescence, A647 channel (570/671 nm), Tris buffer; max dye-equivalent concentration, M; 59,000 tested, under 10 active; AID 592; active means above 1 µM dye equivalent; inconclusive means 0.1 to 1 µM; inactive means 0.1 µM or less;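 further: values scaled relative to a standard on each plate; highest value over a series up to 38 µM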
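Each compound's intrinsic fluorescence at 570 nm excitation and 671 nm emission is measured across its concentration series in 100 mM Tris, pH 8.0, after 15 min at room temperature, and reported relative to an A647 curve.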
TSHR ag = activates the human thyroid stimulating hormone receptor | HEK293-CNG-TSHR cells (CNG channel as cAMP sensor), membrane potential dye, cAMP | Potency, µM (top dose mostly 57.1 µM), without a hit: at the top dose activation, usual class: activators | hit rate 0.48% among 73,000 | AID 926; active = well fitted activation curve of enough size with the parental cells flat; inconclusive = any curve in the parental cells; inactive = parental cells flat and receptor cells flat or falling; further: potency means the concentration at half of the fitted maximal effect; % of control where 0% means no effect; weak receptor curves with flat parental cells got no call and are not listed
Target sequence (P16473 whole entry, looked up): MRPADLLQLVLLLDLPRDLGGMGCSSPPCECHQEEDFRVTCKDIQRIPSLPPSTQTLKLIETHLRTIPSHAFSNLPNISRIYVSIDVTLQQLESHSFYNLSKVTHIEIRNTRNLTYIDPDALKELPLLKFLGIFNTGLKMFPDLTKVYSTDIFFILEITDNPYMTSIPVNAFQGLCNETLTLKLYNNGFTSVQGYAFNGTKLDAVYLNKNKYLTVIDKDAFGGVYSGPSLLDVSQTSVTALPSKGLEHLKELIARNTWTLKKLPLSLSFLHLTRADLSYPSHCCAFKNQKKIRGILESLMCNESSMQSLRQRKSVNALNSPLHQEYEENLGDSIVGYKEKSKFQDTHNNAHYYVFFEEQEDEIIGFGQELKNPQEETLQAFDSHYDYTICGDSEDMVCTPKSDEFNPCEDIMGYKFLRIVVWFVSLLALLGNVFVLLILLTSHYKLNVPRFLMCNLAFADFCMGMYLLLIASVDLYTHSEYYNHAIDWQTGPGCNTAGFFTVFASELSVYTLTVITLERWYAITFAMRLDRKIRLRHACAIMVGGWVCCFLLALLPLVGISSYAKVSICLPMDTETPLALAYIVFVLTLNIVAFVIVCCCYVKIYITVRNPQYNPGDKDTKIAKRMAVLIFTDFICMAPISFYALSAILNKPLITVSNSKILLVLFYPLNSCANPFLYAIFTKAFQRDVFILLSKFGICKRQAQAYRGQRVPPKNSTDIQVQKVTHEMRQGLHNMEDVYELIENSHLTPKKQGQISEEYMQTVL
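HEK 293 cells stably expressing TSHR and a modified CNG channel, with CNG-only parental cells as counterscreen, were preloaded 60 min at room temperature with membrane potential dye containing 100 uM RO 20-1724. Compound exposure was 30 min, and depolarization was read as fluorescence at 590 nm.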
A488 autofl = A488 region autofluorescence | compound autofluorescence, A488 spectral region, dye equivalency; active compounds read high | max dye equivalency, M | hit rate 0.1% among 59,000 | AID 591; active = above 10 nM dye equivalent; inconclusive = 1 to 10 nM; inactive = 1 nM or less; about half of its hits are not listed in these tables;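 further: highest value over a series up to 38 µM; compound alone in buffer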
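Autofluorescence read at ex 480/em 540 nm after 15 min RT in 100 mM Tris pH 8.0; compound signal normalized to A488 standard series on each plate, reported as dye-equivalent concentration at each test concentration.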
The depositor's hits bear a star; i = inactive; ? = inconclusive; nt = not tested or not shown; & = joins results of further samples; [ ] = another dose, or the depositor's remark. The list is partial; count on the stated rates, not on these rows.

The line under a structure holds: AID923	Resorufin autofl	A647 fluor	TSHR ag	A488 autofl
Cc1ccc(-c2nnn(CC(=O)Nc3ccccc3-c3ccccc3)n2)c(-n2cnnn2)c1
    -0.9%	?	5.88e-08	-3.5%	i
O=c1cc(-c2ccccc2)nc(N2CCCCC2)[nH]1
    -2.2%	i	1e-09	-2.9%	i
Clc1ccccc1-c1nnc2sc(-c3ccc(Br)o3)nn12
    0.6%	i	4.09e-08	14.6%	i
CC(=O)N(CCN(C(C)=O)c1ccccc1)c1ccccc1
    1.8%	nt	nt	4.4%	nt
COCCn1c(COc2cccc(OC)c2)nnc1SCC(=O)N1CCOCC1
    1.7%	i	6.55e-08	2.2%	i
Cc1nc(SCC(=O)N2CCCc3ccccc32)c2oc3ccccc3c2n1
    3.5%	i	1.5e-09	?	i
COc1ccccc1NC(=O)N1CCN(c2cccc(C(F)(F)F)c2)CC1
    -2.9%	nt	nt	?	nt
O=C(CCn1c(=O)[nH]c2ccccc2c1=O)Nc1ccccc1
    -0.2%	i	1.5e-09	0.7%	i
CC(=O)c1c(C)nn(CC(O)Cn2c3c(c4cc(C)ccc42)CCCC3=O)c1C (centres undefined)
    7.3%	i	1e-09	8.4%	i
COc1ccc(C2(O)CCN(C(=O)Cc3cccnc3)CC2)cc1
    -1.6%	i	1e-09	-6.5%	i
COc1cccc(/C=C/C2=CC3(C)CC2(C)C(c2cccc(OC)c2)CC3=O)c1 (centres undefined)
    -0.4%[11.5 µM]	nt	nt	3.0%[11.4 µM]	nt
Cc1ccc(OCC(O)CN2CCN(CC(O)COc3ccc(C)cc3)CC2)cc1 (centres undefined)
    0.1%	i	1e-09	?	i
O=C(NCC1CCCO1)c1ccccn1 (centres undefined)
    -0.3%	i	1.92e-08	3.8%	i
Cc1cc(=O)n2c(C)n[nH]c2n1
    0.6%	i	2.68e-08	?	i
O=C(CSc1nnc(NC2CCCCC2)s1)NC1CCS(=O)(=O)C1 (centres undefined)
    -1.6%	i	3.34e-08	6.8%[11.4 µM]	i
CC1Cc2nc(SCC(=O)Nc3nccs3)n(Cc3ccccc3)c(=O)c2S1 (centres undefined)
    3.6%	nt	nt	5.8%	nt
Cc1cc(C2C(=O)CC(=O)CC2c2ccccc2)on1 (centres undefined)
    -0.9%	i	2.29e-08	?	i
COc1ccccc1C(=O)NCCCn1cc(Br)c(C)n1
    -0.2%	i	1.34e-08	10.5%	i
O=C(O)c1ccc(NC(=O)c2cccs2)cc1
    -1.6%	i	2.69e-08	?	i
COc1cccc(-n2c(SCC(=O)NCCc3ccccc3)nnc2-c2ccoc2C)c1
    -1.5%	i	8.1e-09	?	i

The line under a structure holds: AID923	Resorufin autofl	A647 fluor	TSHR ag	A488 autofl
Cc1cccc(N2CCN(C(=O)c3ccc(Cl)c(S(=O)(=O)NCc4ccco4)c3)CC2)c1C
    0.3%	i	4.08e-08	16.6%	i
CC(=O)OCC(=O)Nc1ccc(Cl)cc1Cl
    -0.1%	i	1.11e-08	0.8%	i
C[C@@H]1/C=C\CC(=O)OC[C@H](C)C(=O)N[C@@H](C)C(=O)OC1
    -3.3%[11.5 µM]	nt	nt	-1.7%[11.4 µM]	nt
Cc1cc(N2CCN(C3CCCC3)CC2)n2c(nc3ccccc32)c1C#N
    nt	i	8.06e-08	nt	i
CC(=O)Nc1cccc(-c2csc(NCc3ccco3)n2)c1
    -1.0%	i	1e-09	-1.5%	i
COc1ccc(NC(=O)N2CC3(CCN(C(=O)c4ccco4)CC3)C2)cc1
    -2.1%	i	1.58e-08	9.6%	i
COC(=O)c1c(NC(=O)Cc2cccs2)sc(C(=O)N2CCCCC2)c1C
    3.6%	i	1e-09	?	i
Cc1nnc2n1NC(c1ccc(Cl)cc1)C(C(=O)N(C)C1CCCCC1)S2 (centres undefined)
    -0.8%	i	1.69e-08	3.0%	i
CC(C)CCn1cnc2c([nH]c3cccc(Cl)c32)c1=O
    3.1%	i	1e-09	-11.5%	i
CCCN(CCC)CCc1cccc2c1CC(=O)N2
    2.2%&-3.4%	i	1.7e-09	9.3%	i
O=C1[C@H]2[C@H]3[C@H](O)[C@H](O)C/C(=N/OC[C@@H](O)COCc4ccco4)[C@H]3CC[C@@H]2C(=O)N1C[C@@H]1CCCO1
    3.6%[11.5 µM]	nt	nt	-4.7%[11.4 µM]	nt
COc1ccc(C)cc1NS(=O)(=O)c1cccc2nonc12
    -0.2%	i	7.4e-09	-2.0%	i
Cc1cc(C)n2nc(SCC(=O)NCc3ccco3)nc2n1
    1.0%	i	4.4e-09	nt	i
COc1ccc2oc(C(=O)CCC(=O)O)c(N)c2c1
    11.4%	nt	nt	2.6%	nt
CCCN1C2CCCC1CC(NC(=O)c1ccccc1)C2 (centres undefined)
    1.0%	i	1e-09	0.4%	i
Cn1nc(CC(=O)Nc2ncc(Br)s2)c2ccccc2c1=O
    1.4%	i	1e-09	4.9%[11.4 µM]	i
Cc1ccccc1NC(=O)CNc1ccccc1N1CCCCC1
    0.5%	i	1e-09	-5.7%	i
COc1ccc(Cn2cccc(NC(=O)Nc3ccc(C#N)cc3)c2=O)cc1
    -1.5%	i	1e-09	?	i
O=C(NCc1ccc(F)cc1)C(c1cccs1)N(C(=O)c1csnn1)C1CC1 (centres undefined)
    0.3%	i	6.1e-09	4.7%	i
CCOC(=O)CNc1nc(C(C)(C)C)nc2c1nnn2Cc1ccccc1Cl
    0.7%	i	3.31e-08	2.1%	i

The line under a structure holds: AID923	Resorufin autofl	A647 fluor	TSHR ag	A488 autofl
CCOC(=O)CSc1nnc(CNC(=O)c2ccco2)n1-c1ccc(F)cc1
    0.8%	i	4.06e-08	0.5%	i
CCOc1ccccc1N(CC(=O)N1CCOCC1)S(=O)(=O)c1ccccc1
    0.3%	i	3.29e-08	8.1%	i
COc1cc2c(cc1OC)C1(CCCC1)CNC2C (centres undefined)
    -0.1%	i	1e-09	-6.8%	i
Cc1ccccc1-c1cc(N2CCN(C)CC2)ncn1
    0.1%	i	2.37e-08	6.7%	i
CCCCCOC(=O)Cn1c(SCC(=O)Nc2ccccc2)nc2c1c(=O)[nH]c(=O)n2C
    0.3%	i	2.76e-08	7.3%	i
O=C(OCCNC(=O)c1ccc2ccccc2n1)c1cccnc1
    -1.0%	nt	nt	4.5%	nt
CCOCCCNCC(=O)Nc1ccccc1N1CCOCC1
    0.8%	i	1e-09	nt	i
CC(C)(C)c1ccccc1NC(=O)c1ccco1
    -3.1%	i	1e-09	3.6%	i
O=C(COC(=O)C1CC(=O)N(c2ccc3c(c2)OCCO3)C1)Nc1ccc2c(c1)CCC2 (centres undefined)
    -0.7%	i	1.14e-08	3.7%	i
COc1ccc(C(=O)CSc2nnc(-c3ccccn3)n2Cc2ccco2)cc1
    3.7%	i	4.3e-09	?	i
O=C(c1cccc(F)c1)N1CCC2(CCCN(Cc3nccs3)C2)CC1
    2.6%	i	1e-09	5.5%	i
Cc1ccc(-c2cc(-c3ccc(F)cc3)nc(N)c2C#N)o1
    -0.8%	i	2.2e-08	5.7%	i
CCCn1c(CNC(=O)Cc2ccccc2)nc2ccccc21
    0.3%	i	1e-09	-1.4%	i
Cc1ccccc1Cc1c(C)nc2nc(SCC(=O)NCc3ccco3)nn2c1C
    -0.4%	i	3.74e-08	17.5%[11.4 µM]	i
O=C(CSc1ncnc2nc[nH]c12)N1CCN(c2ccc(Cl)cc2)CC1
    1.0%	i	1e-09	?	i
CC1=C(C(=O)OC(C)C)C(c2ccc(F)cc2)NC(=O)N1 (centres undefined)
    2.0%	i	2.9e-09	4.3%	i
COc1ccc(CN=CC2=C(O)CNC2=O)cc1OC
    -0.2%	nt	nt	26.7%	nt
Cc1ccc(CCNC(=O)C2CCN(C(=O)N(C)C)CC2)cc1
    -1.6%	i	2.22e-08	3.6%	i
C=CCOC(=O)C1=C(C)OC(N)=C(C#N)C1c1ccoc1 (centres undefined)
    nt	i	4.65e-08	nt	i
CCOC(=O)C1C(c2ccccc2Cl)NC(=O)N(C)C1(O)C(F)(F)F (centres undefined)
    0.7%	i	7e-09	-20.9%	i

The line under a structure holds: AID923	Resorufin autofl	A647 fluor	TSHR ag	A488 autofl
COc1ccc(-c2c3c(=O)n(C)c(=O)n(C)c3cn2-c2cccc(OC)c2)cc1
    0.8%	i	7.8e-09	nt	i
COc1ccc(C(=O)N2CCC3(CCCN(Cc4cc(C(F)(F)F)cc(C(F)(F)F)c4)C3)CC2)cc1
    3.0%	i	2.4e-09	2.7%	i
COc1cccc(C(=O)NCc2cn3ccsc3n2)c1
    -2.3%	nt	nt	2.5%	nt
Cc1ccc(CNC(=O)C2C3C=CC(C3)C2C(=O)O)cc1 (centres undefined)
    -1.2%	i	5.47e-08	5.1%	i
Cc1cccc2c1Oc1ccccc1[C@@H]2NC(=O)c1ccc([N+](=O)[O-])cc1
    -1.8%[11.5 µM]	i	2.84e-08	?	i
CC(C)Oc1ccc2c(=O)c(-c3ccccc3)coc2c1
    nt	i	4.52e-08	nt	i
c1ccc(OCCCc2nc(-c3ccccn3)no2)cc1
    -1.6%	i	2.8e-08	1.8%	i
CCc1ccc(O)c(N=Cc2cccc(C)c2O)c1
    1.6%	nt	nt	-2.5%	nt
CCC1(C)Cc2c(C#N)c(N)n(-c3ccccc3)c(=O)c2CO1 (centres undefined)
    -0.4%	i	2.11e-08	-0.1%[11.4 µM]	i
N#CCCn1c(=O)c(-c2ccc(Cl)cc2)nc2cnc(Oc3cccc(Cl)c3)nc21
    15.8%	i	2.9e-08	3.5%	i
COCCN1C(=O)C(=O)/C(=C(/O)c2ccc3c(c2)OCCO3)C1c1ccc(C(=O)OC)cc1 (centres undefined)
    1.5%	i	1e-09	7.2%	i
COC(=O)c1cccc(Nc2cc(C)nc(-c3ccccc3O)n2)c1
    nt	i	5.64e-08	nt	i
O=C(CCCOc1ccccc1)N1CCN(c2ccccn2)CC1
    -1.8%	i	3.55e-08	?	i
N#CCSc1nc2ccccc2c(=O)n1-c1ccccc1
    -0.8%	i	3.93e-08	5.9%	i
CCN(CC)CCn1c(=N)n(CCO)c2ccccc21
    0.1%	nt	nt	22.9%	nt
Cc1cc(N2CCCC2=O)cc(C)c1CN1C(=O)c2ccccc2C1=O
    0.1%	i	1.3e-09	?	i
O=C(NCc1ccco1)c1cc(S(=O)(=O)N2CCOCC2)ccc1Cl
    -1.7%	nt	nt	?	nt
COc1c(F)c(F)c(C(=O)Nc2cccc(Cl)c2N2CCOCC2)c(F)c1F
    0.5%	i	1.6e-08	?	i
CN1CCN(C(=O)c2cnn(-c3ccccc3)c2NC(=O)c2cccs2)CC1
    6.1%	i	1e-09	7.5%	i
Cc1nc(CC(=O)Nc2nc(-c3ccccc3)cs2)cs1
    -1.4%	i	3.33e-08	14.5%	i

Some of the entries so far, with each value named.
COc1ccccc1NC(=O)N1CCN(c2cccc(C(F)(F)F)c2)CC1
  AID923: -2.9%
  Resorufin autofl: nt
  A647 fluor: nt
  TSHR ag: ?
  A488 autofl: nt
CCc1ccc(O)c(N=Cc2cccc(C)c2O)c1
  AID923: 1.6%
  Resorufin autofl: nt
  A647 fluor: nt
  TSHR ag: -2.5%
  A488 autofl: nt
COCCN1C(=O)C(=O)/C(=C(/O)c2ccc3c(c2)OCCO3)C1c1ccc(C(=O)OC)cc1 (centres undefined)
  AID923: 1.5%
  Resorufin autofl: i
  A647 fluor: 1e-09
  TSHR ag: 7.2%
  A488 autofl: i

(more compounds)
The line under a structure holds: AID923	Resorufin autofl	A647 fluor	TSHR ag	A488 autofl
O=C(CCSCCc1ccccn1)Nc1nccs1
    1.8%	nt	nt	-5.1%	nt
CS(=O)(=O)Nc1ccc(C(=O)NCc2ccco2)cc1
    2.3%	i	7.6e-09	-0.6%	i
CC(C)CC1(C(=O)NCCN2CCOCC2)C=CCN1C(=O)c1ccccc1 (centres undefined)
    0.1%	nt	nt	?	nt
CN(C)CCCNCCCNC(=O)c1ccccn1
    -1.7%	i	1.83e-08	-1.1%	i
